ALR H2O2 inh = inhibitors of human sulfhydryl oxidase ALR; purified ALR, DTT oxidation, H2O2 HRP-luminol luminescence; P55789; inhibition, % (concentration not given with the values); 290,000 compounds, 3.8% hits;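 active = mean and each replicate at 75% or more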;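 also: stock transfer was 7.5 nL into about 7.5 µL; 0% = neutral wells and 100% = wells with inactivated enzyme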
LANA-H2B inh = blocks KSHV LANA binding to histone H2A/H2B. 320,000 compounds, 0.6% hits. AID 2629. inhibition, % (concentration not given with the values). cell-free LANA-H2A/H2B peptide, fluorescence polarization; in the data active = inhibition mostly above about 10%, no sharp cut-off; inactive = mostly below about 6.7%;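 also: stock transfer was 7.5 nL into about 10 µL; 0% = median of vehicle wells and 100% = median of positive control wells; one replicate is shown; the record names a cut of 25% in any replicate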
Target sequence (Q9QR71 whole entry, looked up): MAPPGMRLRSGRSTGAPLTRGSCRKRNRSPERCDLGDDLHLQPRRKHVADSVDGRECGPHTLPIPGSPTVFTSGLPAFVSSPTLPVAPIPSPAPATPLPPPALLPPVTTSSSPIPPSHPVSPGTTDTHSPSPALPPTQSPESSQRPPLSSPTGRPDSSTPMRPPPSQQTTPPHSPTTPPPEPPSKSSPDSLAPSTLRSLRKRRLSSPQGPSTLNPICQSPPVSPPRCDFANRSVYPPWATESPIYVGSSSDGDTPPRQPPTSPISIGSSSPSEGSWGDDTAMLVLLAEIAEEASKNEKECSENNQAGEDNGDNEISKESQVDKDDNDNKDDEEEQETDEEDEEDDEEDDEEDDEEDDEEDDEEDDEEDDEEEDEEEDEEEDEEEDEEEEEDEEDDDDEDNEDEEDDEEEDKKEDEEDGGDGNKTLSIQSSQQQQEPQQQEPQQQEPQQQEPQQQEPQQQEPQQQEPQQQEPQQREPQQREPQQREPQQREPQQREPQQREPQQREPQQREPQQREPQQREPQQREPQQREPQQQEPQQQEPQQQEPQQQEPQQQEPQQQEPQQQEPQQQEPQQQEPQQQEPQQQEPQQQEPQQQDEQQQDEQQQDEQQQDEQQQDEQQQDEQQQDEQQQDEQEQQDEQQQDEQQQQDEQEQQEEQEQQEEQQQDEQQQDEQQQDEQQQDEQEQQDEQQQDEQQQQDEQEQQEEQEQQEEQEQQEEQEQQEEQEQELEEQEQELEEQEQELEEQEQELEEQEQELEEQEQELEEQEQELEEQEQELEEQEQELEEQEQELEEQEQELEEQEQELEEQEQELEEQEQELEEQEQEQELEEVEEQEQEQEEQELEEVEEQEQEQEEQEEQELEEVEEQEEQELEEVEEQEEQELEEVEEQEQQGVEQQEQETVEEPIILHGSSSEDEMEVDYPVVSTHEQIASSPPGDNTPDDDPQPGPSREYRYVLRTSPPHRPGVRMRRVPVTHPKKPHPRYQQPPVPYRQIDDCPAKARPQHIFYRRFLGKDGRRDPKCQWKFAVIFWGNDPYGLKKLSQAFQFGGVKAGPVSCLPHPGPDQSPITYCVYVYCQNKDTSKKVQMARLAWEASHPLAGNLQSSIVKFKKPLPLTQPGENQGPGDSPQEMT
rRNA inh HTS = inhibitors of bacterial rRNA selective over humanized ribosomes. E. coli WT GFP vs humanized-ribosome RFP mutants, fluorescence, 24 h; stronger effect = lower value; DMSO median 0, no signal -100. 350,000 compounds, 1.6% hits. GFP signal change (wild-type ribosome), % (test concentration not listed);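 active = significant combined selectivity score with lowered wild-type GFP, culture density cut under 30%, mutant RFP and density less affected; inactive = any of these conditions unmet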; also: one replicate is shown; some compounds called inactive have numbers as strong as hits
B2AR ag = human beta-2 adrenergic receptor agonism by FAP | Am2.2-beta2AR cells, FAP receptor internalization, flow cytometry; reference of the scale not given here | response, % (no concentration beside the values) | 340,000 compounds, 0.43% hits;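 active = response above a set limit, near 3 SD of response in nonfluorescent compounds, cut at about 42% in these data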;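 also: stock transfer was 100 nL into about 11 µL; a reference agonist was the positive control; negative values mostly stem from fluorescent compounds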
Calb FLC = C. albicans growth modulation with fluconazole; C. albicans CaCi-2 (fluconazole-resistant clinical isolate) + fluconazole, Alamar Blue growth, 48 h; 300,000 compounds, 0.57% hits; growth inhibition, % (test concentration not listed); AID 1979;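 active = most replicates above 75%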;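 also: all wells also contain fluconazole at 8 µg/ml as a sub-toxic cotreatment; 0% = median of DMSO wells and 100% = median of geldanamycin control wells; wells of about 8 µL received 7.5 nL stock; the first replicate is given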
Bfl-1 A1 inh = inhibitors of the anti-apoptotic protein A1, read as caspase activation. MEF A1-2A-BIM cells, Caspase-Glo 3/7 luminescence, 3 h; percent of clofoctol response, vehicle zero. AID 2462. 330,000 compounds, 0.066% hits. caspase activation, % (concentration not given with the values);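 active = over half of replicate activation scores above 10%, or exactly half above 10 with the replicate mean above 10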;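 also: wells of about 30 µL received 50 nL stock; many hits fall short of the cut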
Beta apoptosis = beta cell apoptosis inhibition | 300,000 compounds, 0.8% hits | INS-1E cytokine-induced death, ATP luminescence, 48 h; percent of positive-control rescue, neutral wells zero | protection from apoptosis, % (test concentration not listed);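 active = all replicates at 75% or more, or half of them and the mean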;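 also: 0% = cytokine-treated negative control wells and 100% = positive control rescue; higher means more ATP so stronger rescue from cytokine killing; wells of about 40 µL received 100 nL stock; the first replicate is given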
T cruzi repl = blocks replication of Trypanosoma cruzi; 300,000 compounds, 1.4% hits; inhibition, % (no concentration beside the values); AID 1885; T. cruzi beta-gal in NIH3T3, luminescence, 90 h;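 active = mean inhibition across valid replicates above about 55%, limit read from the data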;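 also: signal also drops with host cell toxicity which is not excluded here; 0% = plate median of DMSO wells and 100% = zero luminescence signal; higher percent means less beta-gal luminescence so fewer parasites; stock transfer was 50 nL into about 50 µL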
rRNA inh HTS OD600 = further read-out of rRNA inh HTS, marked with its call; OD600 change, %; measured here: OD600 growth;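 optical density of the mix in the first replicate; 0 = DMSO median and -100 = no signal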
rRNA inh HTS RFP = second read-out of rRNA inh HTS, no call of its own (marks repeat the call); RFP signal change, %; measured here: RFP humanized mutant strains;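 first replicate; 0 = DMSO median and -100 = no signal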
Numbers without * were called inactive; . = no result given. An excerpt; the hit share may differ from the screen's.

SMILES	ALR H2O2 inh	LANA-H2B inh	rRNA inh HTS	rRNA inh HTS OD600	rRNA inh HTS RFP	B2AR ag	Calb FLC	Bfl-1 A1 inh	Beta apoptosis	T cruzi repl
Cc1cnc(C(=O)NC2CCSc3ccccc32)cn1 (stereo unspecified)	12	1.2	3	11	2.3	2	3	1.2	-1	-1
CC(OC(=O)Cc1n[nH]c(=O)c2ccccc12)C(=O)Nc1ccc(F)cc1Cl (stereo unspecified)	-10	-1.0	7	17	-1.1	3	-2	-0.2	-4	-6
CC(=O)Oc1ccc2oc3c(c2c1)C(=O)CCC3	-4	2.8	.	.	.	1	-2	-1.4	-1	-13
O=C(NCc1ccc2c(c1)OCO2)C1CCCN1C(=O)Nc1ccccc1 (stereo unspecified)	-2	-0.6	5	4	0.9	2	-23	-0.4	-1	-9
Cc1onc(-c2ccccc2)c1NC(=O)Nc1c(-c2ccccc2)noc1C	-19	1.0	-1	-5	-0.9	0	11	0.6	-6	-1
Cc1ccc(Cl)cc1NC(=O)C1CCCN(S(C)(=O)=O)C1 (stereo unspecified)	-1	0.4	8	12	0.1	-7	-8	0.2	0	9
O=C(COc1ccc(Cl)cc1Cl)NC(=O)N1CCOCC1	-2	1.0	.	.	.	-6	-9	-0.3	0	8
COc1ccc(C(=O)Nc2ccc(CN3CCOCC3)cc2)cc1	-27	-0.6	.	.	.	-1	-2	1.6	-1	22
CCN(CC)S(=O)(=O)c1ccc(OC)c(NC(=O)CSc2ccccc2)c1	-10	2.5	.	.	.	-10	0	0.5	-4	-5
CCOC(=O)c1sc(NC(=O)CSc2nnc(-c3ccco3)o2)c(C(=O)OCC)c1C	-11	-2.3	.	.	.	7	3	0.3	-2	2
O=C(O)c1ccc(CNCc2ccccc2F)cc1	-3	0.3	13	7	3.7	4	-3	-3.9	7	-14
CCOCCCNC(=O)c1ccccc1Br	1	3.4	.	.	.	-1	19	1.1	-4	-4
CCCCCCCCNC(=O)CCNC(=O)c1ccc(C(C)(C)C)cc1	-5	-0.2	7	12	0.2	-11	3	0.6	2	-6
COc1ccc(N2C(=O)C(CC(=O)Nc3ccccc3)N(CCc3ccc(OC)c(OC)c3)C2=O)cc1 (stereo unspecified)	-11	2.9	7	7	0.2	8	-2	0.2	-1	-8
Cn1cccc1CC(=O)N/N=C/c1cc([N+](=O)[O-])ccc1Cl	3	-0.1	10	3	0.0	4	-13	0.0	3	-5
CCOC(=O)CCCNC(=O)CCNC(=O)c1ccc(OCC(C)C)cc1	4	-3.6	5	7	-0.3	0	0	-0.7	-1	-3
COc1ccccc1OCC(=O)Nc1cc(C(F)(F)F)ccc1-n1cncn1	-2	-1.1	-3	-1	-3.2	-5	0	0.7	2	-14
O=S(=O)(c1ccc2c(c1)OCCO2)N1CCC(c2nc3ccccc3[nH]2)CC1	.	2.2	.	.	.	-15	-14	0.4	.	21
NC(=O)Cc1ccc(C(=O)CSc2nnc(-c3ccncc3)n2C2CC2)s1	-12	3.3	.	.	.	4	.	-0.1	0	.
CCNC(=O)C12CCC(C)(c3nc4cc(C)c(C)cc4nc31)C2(C)C (stereo unspecified)	-19	2.5	-4	-7	-0.3	-7	26	-0.4	-3	9
CCOc1nc(-c2ccccc2)ccc1-c1noc(-c2cccs2)n1	15	0.2	.	.	.	-1	3	-0.5	3	6
COc1cc(-c2nnc(SCC(=O)/C(C#N)=C(\C)N)o2)cc(OC)c1OC	5	-3.0	.	.	.	3	-4	-0.3	6	-6
O=C(CSC1CC(=O)N(c2ccc(C(=O)O)cc2)C1=O)Nc1ccc2ccccc2c1 (stereo unspecified)	100*	-3.0	8	6	0.8	-7	-17	-1.0	0	3
Cc1cc(NC(=O)C(=O)c2cn(C)c3ccccc23)no1	-4	3.0	5	6	-3.5	-4	0	-1.1	2	-7
CC(=O)Nc1ccccc1N(CC(O)Cn1c2ccccc2c2ccccc21)S(=O)(=O)c1ccc(C)cc1 (stereo unspecified)	-2	-0.5	17	-4	-1.6	-4	-3	0.8	10	36
Cc1nc2cc(NC(=O)c3ccco3)ccc2n1C	0	-0.9	4	12	1.9	-7	-3	1.3	3	-3
O=C(Nc1cccc2ncccc12)C12CC3CC(CC(C3)C1)C2	.	-5.8	.	.	.	-3	0	-1.2	1	-4
CC(NC(=O)C(c1ccccc1)c1ccccc1)c1ccc(S(N)(=O)=O)cc1 (stereo unspecified)	2	3.8	-1	-1	-1.3	-5	8	0.4	5	16
O=C(CN1C(=O)CSC1=O)N1CCCCC1	6	-2.2	.	.	.	0	-3	-0.1	0	16
CS(=O)(=O)N1CCN(c2ccc(NC(=O)c3ccccc3)cc2)CC1	-4	4.5	12	10	1.9	-6	26	-0.3	6	-8
COc1cc(/C=N/NC(=O)CCC(=O)Nc2ccc(Br)cc2)ccc1O	16	-3.0	-7	-3	5.5	4	-1	1.6	-2	-4
Cc1ccc(CNC(=O)Cn2c([N+](=O)[O-])cnc2C)cc1	-1	5.5	7	-5	-1.7	15	-8	-0.2	.	3
Fc1ccc(Br)cc1/C=N/N1CCN(c2ccccc2)CC1	-2	-1.3	-5	-8	-2.2	-3	-4	0.2	0	6
Cc1c(N/C(=N/S(=O)(=O)c2ccccc2)c2ccc(Cl)cc2)c(=O)n(-c2ccccc2)n1C	.	.	.	.	.	3	-28	-0.9	-11	5
O=Cc1ccc(Oc2ccc(F)cc2)nc1	-4	3.4	13	3	2.0	-4	21	-2.4	-6	-7
c1ccc(-c2nnc3n2-c2ccccc2SC3)cc1	-14	-3.9	-8	-2	-1.8	-3	-3	-0.1	.	1
CC(=O)c1ccc(NC(=O)Cn2c(=O)oc3ccccc32)cc1	-3	-2.0	9	17	0.6	-10	-2	0.8	-3	-2
CCOC(=O)/C(C#N)=N/Nc1ccccc1C(=O)O	3	5.9	-4	-7	-5.7	2	8	-4.3	1	4
C[C@@H](C(=O)NCCc1c[nH]c2ccccc12)[C@H]1C[C@]1(C)[C@H](NC(=O)OCc1ccccc1)c1ccccc1	1	2.7	-1	5	-1.9	1	1	1.0	34	33
COc1ccc(OCC(=O)NC2CCSc3ccccc32)cc1 (stereo unspecified)	-2	10	7	-34	-16	2	.	1.3	-5	.

A portion of the results above:
SMILES	ALR H2O2 inh	LANA-H2B inh	rRNA inh HTS	rRNA inh HTS OD600	rRNA inh HTS RFP	B2AR ag	Calb FLC	Bfl-1 A1 inh	Beta apoptosis	T cruzi repl
CC(=O)Nc1ccccc1N(CC(O)Cn1c2ccccc2c2ccccc21)S(=O)(=O)c1ccc(C)cc1 (stereo unspecified)	-2	-0.5	17	-4	-1.6	-4	-3	0.8	10	36
Cc1nc2cc(NC(=O)c3ccco3)ccc2n1C	0	-0.9	4	12	1.9	-7	-3	1.3	3	-3
O=C(Nc1cccc2ncccc12)C12CC3CC(CC(C3)C1)C2	.	-5.8	.	.	.	-3	0	-1.2	1	-4
CC(NC(=O)C(c1ccccc1)c1ccccc1)c1ccc(S(N)(=O)=O)cc1 (stereo unspecified)	2	3.8	-1	-1	-1.3	-5	8	0.4	5	16

Next section.
SMILES	ALR H2O2 inh	LANA-H2B inh	rRNA inh HTS	rRNA inh HTS OD600	rRNA inh HTS RFP	B2AR ag	Calb FLC	Bfl-1 A1 inh	Beta apoptosis	T cruzi repl
O=C(CN1CCC(C(=O)c2ccc(F)cc2)CC1)NCc1ccccc1F	0	-1.0	-4	-2	3.8	-14	20	-1.4	4	-2
COc1ccc(CCN2CC(C(=O)NCCc3cccc(F)c3)CCC2=O)cc1 (stereo unspecified)	.	.	8	-2	3.6	1	-4	.	.	-1
N#C[C@@H]1[C@@H]2C(=O)N(c3ccc4c(c3)OCCO4)C(=O)[C@@H]2C2c3ccccc3C=CN21 (stereo partly specified)	-23	0.3	.	.	.	.	-1	-0.3	-1	-12
CN(C(=O)OCc1ccccc1)C(CC(N)=O)C(=O)O (stereo unspecified)	2	-2.4	.	.	.	-8	-6	0.8	-3	-12
CCN(CC)C(=O)c1ccc(-c2nnc(Nc3ccc(O)cc3)c3ccccc23)cc1	5	-2.8	.	.	.	11	30	0.7	0	-5
COc1ccc(N2CCc3c(C)nc(SC)nc32)cc1	1	8.4	10	5	-4.3	-15	3	0.6	6	13
CCOC(=O)c1ccc(NS(=O)C23CC4CC(CC(C4)C2)C3)cc1 (stereo unspecified)	-9	-2.7	.	.	.	-3	2	0.0	2	-1
CCOc1cc(C#N)ccc1OCC(=O)N1CCN(C(=O)c2cccs2)CC1	-9	-0.8	.	.	.	0	.	-0.1	-4	.
CCCCCCCC(=O)NC(Nc1ccccc1OC)C(Cl)(Cl)Cl (stereo unspecified)	.	-4.4	.	.	.	6	-19	-0.6	2	35
O=C(CCNC(=O)OCc1ccccc1)NC1CCCCCC1	1	-0.2	3	-2	-3.5	-8	4	1.1	-5	-15
Cc1ccc(/C(O)=C2/C(=O)C(=O)N(CCN3CCOCC3)C2c2cccnc2)cc1 (stereo unspecified)	-7	-2.5	.	.	.	2	1	-0.1	-5	-3
O=C(Nc1ccc(N2CCCC2)cc1)c1cc([N+](=O)[O-])ccc1N1CCOCC1	51	-8.1	12	10	1.6	-14	26	0.9	11	22
Cn1c(=O)c2c(ncn2CCc2ccccc2)n(C)c1=O	-22	7.6	4	-8	-2.0	0	-6	0.2	2	4
COc1ccc(/C=N/NC(=O)c2nc(-c3ccccc3)cc(-c3ccccc3)n2)cc1O	7	2.6	.	.	.	-30	-3	0.3	15	32
Cc1ccc(C(=O)CCCn2nnc(-c3cccnc3)n2)cc1C	.	-2.3	.	.	.	-1	-3	0.0	.	-4
O=C(COc1ccc(F)cc1)N1CCC(Cc2ccccc2)CC1	1	-1.3	.	.	.	-1	8	-0.7	.	14
Cc1ccc(CSc2ncn(-c3ccccc3)n2)cc1	2	-2.5	.	.	.	-16	4	-1.8	.	11
CCOC(=O)C(C)Sc1nnc(Cc2cc(=O)[nH]c(=O)[nH]2)n1-c1ccc(OCC)cc1 (stereo unspecified)	-32	1.0	8	11	2.2	4	.	0.5	.	.
COc1ccccc1NC(=O)CN(Cc1ccco1)C(=O)c1cc2ccccc2o1	-2	4.7	.	.	.	-5	-1	0.8	1	16

Retrieved one by one from the entries so far, four records:
SMILES	ALR H2O2 inh	LANA-H2B inh	rRNA inh HTS	rRNA inh HTS OD600	rRNA inh HTS RFP	B2AR ag	Calb FLC	Bfl-1 A1 inh	Beta apoptosis	T cruzi repl
O=Cc1ccc(Oc2ccc(F)cc2)nc1	-4	3.4	13	3	2.0	-4	21	-2.4	-6	-7
Cc1cc(NC(=O)C(=O)c2cn(C)c3ccccc23)no1	-4	3.0	5	6	-3.5	-4	0	-1.1	2	-7
O=C(COc1ccc(Cl)cc1Cl)NC(=O)N1CCOCC1	-2	1.0	.	.	.	-6	-9	-0.3	0	8
COc1ccc(OCC(=O)NC2CCSc3ccccc32)cc1 (stereo unspecified)	-2	10	7	-34	-16	2	.	1.3	-5	.

Source: PubChem
